Rce1 inh = yeast Ras-converting enzyme inhibition. Q03530. yeast membranes, quenched prenylated peptide cleavage fluorescence. calls only. actives 0.27% (n = 290,000). AID 2563;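 active = fall in fluorescence gain of 50% or more versus controls, with final raw signal at or below 3038400; inconclusive = same 50% fall but final raw signal above 3038400; inactive = fall in fluorescence gain under 50%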;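 note: plate controls were neutral control wells for no effect and wells lacking membranes for full effect; tested at 10 µM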
Target sequence (Q03530 whole entry, looked up): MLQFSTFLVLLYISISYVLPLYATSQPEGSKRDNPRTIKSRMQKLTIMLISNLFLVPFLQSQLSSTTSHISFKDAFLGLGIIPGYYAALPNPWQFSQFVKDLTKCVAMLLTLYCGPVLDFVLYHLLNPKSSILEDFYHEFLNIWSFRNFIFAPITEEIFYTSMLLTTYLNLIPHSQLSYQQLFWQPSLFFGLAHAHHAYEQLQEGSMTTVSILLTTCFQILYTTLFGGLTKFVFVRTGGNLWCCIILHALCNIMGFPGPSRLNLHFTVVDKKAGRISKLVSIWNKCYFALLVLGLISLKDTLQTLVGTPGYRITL
MT1-MMP act inh = MT1-MMP (human) activation inhibition. P50281. HT1080 RFP-PRO-GFP cells, GFP/RFP ratio fluorescence, overnight; percent of plate control window, DMSO zero. GFP/RFP ratio change, % at 20 µM. actives 0.061% (n = 360,000);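 active = GFP/RFP ratio change of at least 30% with cell ATP level not reduced by more than half and red fluorescence within 50% of control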; note: strong numbers were not always called active
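Assay system: HT1080 RFP-PRO-GFP cells | Dosing: 20 µM single dose, 1% DMSO | Incubation: Cells overnight before dosing, compound overnight, 37 °C, 5% CO2 | Evaluation: GFP/RFP fluorescence ratio | Control set: DMSO-only wells and HT1080 RFP-L50D-GFP cell wells as references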
PABP FP inh = PABP-poly(A) binding inhibition. P11940. PABP-poly(A) RNA binding, fluorescence polarization. inhibition, % at 35 µM. actives 1% (n = 290,000). AID 2014;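 active = 50% or more with normal probe brightness, or confirmed in later tests; inconclusive = above 50% with abnormal brightness, or retests that disagree; inactive = below 50% or failed in later tests; about a fifth of its hits are not listed in these tables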;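 note: calls also rest on retests at 20 µM and on dose response follow-up; controls were probe without protein and protein plus probe with vehicle; some compounds called inactive have numbers as strong as hits; many hits fall short of the cut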
HIV Env fusion = blocks HIV Env-driven cell-cell fusion; HeLa-JRFL Env/CEM21 cell fusion, luciferase; inhibition, % at 12.3 µM; actives 1.1% (n = 360,000); AID 651610;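 active = mean replicate inhibition score of at least 50 and every replicate individually at or above 50; inconclusive = only one of the two criteria met; inactive = mean below 50 and not all replicates reaching 50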;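 note: 0% = plate neutral controls and 100% = maraviroc near 300 nM; one replicate is shown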
UUG fidelity = yeast start codon fidelity modulation. S. cerevisiae UUG-firefly luciferase reporter, luminescence/redox ratio. activity score, % at 18.7 µM. actives 0.13% (n = 350,000). AID 602363;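 active = replicate mean at a twofold rise or more, about +100% in these data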;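 note: firefly luciferase made from a UUG start codon reports start codon fidelity; reporter light over untreated wells divided by growth signal over untreated wells; some hits fall short of that in this replicate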
CSC inhib = blocks cancer stem cells | inhibition, % at 7.5 µM | actives 1.1% (n = 300,000) | cancer stem cell-like cells viability, luminescence;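 active = mean at 75% or more and at least half the replicates too; inconclusive = mean and replicates disagree; tested in HMLE shEcad cells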;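 note: 0% = median of negative and 100% = median of positive control wells; the first replicate is given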
eIF4H inh = inhibitors of RNA binding by human eIF4H | Q15056 | eIF4H fluorescence polarization binding assay | AID 2012 | inhibition, % at 35 µM | actives 0.94% (n = 290,000);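 active = 50% or more with normal probe brightness, or confirmed in later tests; inconclusive = above 50% with abnormal brightness, or retests that disagree; inactive = below 50% or failed in later tests; about a fifth of its hits are not listed in these tables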;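 note: calls also rest on retests at 20 µM and on dose response follow-up; 0% = protein and probe with vehicle and 100% = probe without protein; strong numbers were not always called active; many hits fall short of the cut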
MT1-MMP act inh RFP = second read-out of MT1-MMP act inh, no call of its own (marks repeat the call); RFP signal change, %; measured here: RFP expression control read;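 0 = vehicle wells; hits needed this value within 50% of zero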
An asterisk follows results filed as active; i = inactive; u = inconclusive; x = no result given; & = joins results of further samples. This is a random part of the collection (roughly 3% active in at least one column).

cpd	Structure	Rce1 inh	MT1-MMP act inh	MT1-MMP act inh RFP	PABP FP inh	HIV Env fusion	UUG fidelity	CSC inhib	eIF4H inh
1	O=C(c1ccco1)N1CCN(C(=O)C2CCCc3c2[nH]c2ccc(Cl)cc32)CC1 (configuration not stated)	i	3	-2	3	x	x	24	-15
2	CCC(Oc1ccccc1)C(=O)Nc1ccsc1C(=O)OC (configuration not stated)	i	5	-1	-14	12	x	9	-9
3	O=C(N/C(=C\c1ccc(O)cc1)C(=O)N1CCCCC1)c1ccccc1	i	0	-2	-14	-12	-26	3	-6
4	Cc1oc2ccc(OCc3ccc(Cl)cc3)cc2c1C(=O)O	i	3	8	-10	13	-19	-7	-12
5	CCc1nc2c(OCC(=O)c3ccc(Cl)cc3Cl)cccn2c1N(C)C(=O)c1cccs1	x	-8	-9	x	i	-14	x	x
6	O=C(COC(=O)c1ccc(Cl)c(Cl)c1)Nc1cccnc1Cl	i	4	6	1	-19	x	2	3
7	CC(=O)Nc1cccc(/C(C)=N\NC(=O)c2ccc(Cn3nc([N+](=O)[O-])c(Cl)c3C)o2)c1	i	-2	0	-4	8	x	x	-5
8	C=CC[C@H]1CC(Cc2ccccc2)=C[C@H](CC=C)N1	i	-5	-5	-4	33	-15	-5	6
9	CCc1nnc(NC(=O)CCN2C(=O)C3CCCCC3C2=O)s1 (configuration not stated)	i	1	-1	9	x	-7	-5	-2
10	COc1ccccc1C(=O)n1nc(-c2ccccc2)nc1N	i	4	2	-6	x	x	-12	-10
11	COc1ccc(NC(=O)c2ccc(-n3nc(C)c[n+]3[O-])cc2)cc1	i	4	3	-9	x	-23	-12	-5
12	CCC1CCC2(CC1)NC(=O)N(CC(=O)NCc1ccccc1Cl)C2=O (configuration not stated)	x	6	1	x	-8	-4	-4	x
13	OC(COCc1cccs1)CN1CCN(c2ccccc2Cl)CC1 (configuration not stated)	i	1	-5	2	-5	x	0	7
14	O=S(=O)(c1ccccc1)N1CCN(C(=S)NCc2ccccc2)CC1	i	1	-6	-4	-3	-24	-18	0
15	O=C(C1CN(S(=O)(=O)c2ccccc2)CCN1S(=O)(=O)c1ccccc1)N1CCCCCC1 (configuration not stated)	i	-1	4	-3	x	x	-11	3
16	CCOC(=O)c1cc(CC)sc1NC(=O)CCC(=O)O	i	-1	2	-2	x	-4	-9	1
17	O=S(=O)(Nc1ccc2c(c1)OCO2)c1ccccc1	i	7	0	-1	-25	-7	7	0
18	CC12CCC(=O)N1C(C(=O)Nc1cc(S(=O)(=O)N3CCCCCC3)ccc1OCC(F)(F)F)CS2 (configuration not stated)	i	-4	-5	12	20	-2	-4	-8
19	CCN(CC)S(=O)(=O)c1cccc(C(=O)NC(C(=O)NNC(=O)c2ccccc2F)C(C)C)c1 (configuration not stated)	x	3	1	x	10	-5	x	x
20	COc1cccc(NC(=O)CN(C)C(=O)c2cccc(S(=O)(=O)N3c4ccccc4CC3C)c2)c1 (configuration not stated)	x	-9	3	x	25	35	x	x
21	CC1(C)C2([N+](=O)[O-])CN3CC1([N+](=O)[O-])CN(C2)C3c1ccc(O)c(O)c1 (configuration not stated)	i	2	7	5	9	x	28	0
22	CN(CCCC(=O)NCCc1ccccc1)S(=O)(=O)c1ccc([N+](=O)[O-])cc1	i	0	-4	-1	6	-3	-6	4
23	COc1ccccc1N1CCN(/N=C\c2cccnc2)CC1	i	-1	-1	15	-20	-8	-32	12
24	COc1ccc(Cc2nc(-c3ccccn3)no2)cc1	i	9	-1	-11	13	-12	x	-5
25	CCOC(=O)c1ccc(NC(=O)c2nn(C)cc2Br)cc1	i	-1	1	-2	-232	-22	-6	-5
26	COc1ccc(S(=O)(=O)N2CC(C(=O)O)Oc3ccccc32)cc1 (configuration not stated)	i	-3	6	8	1	-11	-13	-12
27	CC(=O)Oc1ccc(NC(=O)CCC2CCCCC2)c(C(=O)O)c1	i	-2	4	1	-45	-14	-11	1
28	CCN(CC(=O)Nc1ccc(NC(C)=O)cc1)C(=O)Cc1cccc2ccccc12	i	0	2	8	-6	-4	-4	-14
29	CCCCNC(=S)NCC(c1ccccc1)c1c[nH]c2ccccc12 (configuration not stated)	i	-1	-4	-4	7	-22	7	-15
30	Cc1ccc(Cn2c(=N)c(C(=O)NCC3CCCO3)cc3c(=O)n4cccc(C)c4nc32)cc1 (configuration not stated)	i	-3	-4	3	-25	5	-6	-7
31	Cc1cc(C)c2c(CN3CCN(Cc4ccc5c(c4)OCO5)CC3)cc(=O)oc2c1	i	2	-7	-6	x	-6	54	-4
32	CC1(C)CC(=O)C(/C=N/c2ncccc2C(=O)O)=C(O)C1	i	6	5	8	-34	-12	-5	-2
33	O=C(Nc1ccccc1C(=O)NCC1CCCO1)c1ccccc1 (configuration not stated)	i	-2	-2	2	40	-6	15	-2
34	O=C(c1cnn(C(=O)CN2CCCC2=O)c1)c1ccccc1O	x	-2	0	x	x	6	-7	x
35	COc1ccc(C(=O)Nc2nnc(-c3ccc(F)cc3)s2)c(OC)c1	i	1	9	-12	-8	-10	x	-7
36	COc1ccc(NC(=O)COC(=O)CCc2ccc(S(=O)(=O)N3CCOCC3)cc2)c(OC)c1	x	-1	1	x	0	18	-22	x
37	CCOc1ccc(/C=c2\sc3nc(-c4ccco4)nn3c2=O)cc1OCC	i	1	-1	-6	x	6	7	33
38	Cc1cccc(NC(=O)CCCn2cc([N+](=O)[O-])cn2)n1	i	7	3	-4	5	-13	5	3
39	CCOc1ccc(N(CC(=O)Nc2cccnc2)S(C)(=O)=O)cc1	i	4	7	1	-7	x	-3	-9
40	Cc1cc(C(=O)NC2CCCc3c2cnn3-c2ccc(C)c(C)c2)no1 (configuration not stated)	i	-1	-19	-6	-5	x	6	-2

The final 2 records of the part above are carried over, then new ones follow:
cpd	Structure	Rce1 inh	MT1-MMP act inh	MT1-MMP act inh RFP	PABP FP inh	HIV Env fusion	UUG fidelity	CSC inhib	eIF4H inh
39	CCOc1ccc(N(CC(=O)Nc2cccnc2)S(C)(=O)=O)cc1	i	4	7	1	-7	x	-3	-9
40	Cc1cc(C(=O)NC2CCCc3c2cnn3-c2ccc(C)c(C)c2)no1 (configuration not stated)	i	-1	-19	-6	-5	x	6	-2
41	CCN(CC)S(=O)(=O)c1ccc2c(c1)nc(CCC(=O)Nc1ccc3c(c1)OCO3)n2CC	i	3	4	-4	-2	-13	-9	10
42	O=C(NCC(=O)N1CCCC1C(=O)O)OC1CCCCC1 (configuration not stated)	i	1	5	9	x	-17	-1	1
43	Cc1cccc(-n2c(C)cc(/C=N\NC(=O)c3ccco3)c2C)c1	i	-8	-2	-12	-14	x	-11	-5
44	Cc1ccc(C(=O)O/N=C2\CC3CCC2(C)C3(C)C)cc1 (configuration not stated)	i	-1	0	5	-43	2	-6	2
45	COc1cccc(N2CCN(C3CC(=O)N(c4cccc(Cl)c4)C3=O)CC2)c1 (configuration not stated)	i	-3	-3	9	-38	-15	4	0
46	O=C(Cc1ccccc1[N+](=O)[O-])N1CCc2ccccc2C1	i	1	1	4	-13	x	-10	-9
47	Cc1ccc(Nc2nc(N)nc(CCl)n2)c(C)c1	i	-1	-14	-4	42	x	2	2
48	N/C(=N\OC(=O)c1ccc(Cl)cc1Cl)c1ccncc1	i	1	1	12	-104	x	-5	24
49	CSCCC(NC(=O)c1ccccc1)C(=O)NCC(C)(C)N1CCOCC1 (configuration not stated)	x	-1	-2	x	2	-21	x	x
50	COc1ccc(N2C(=O)CC(NNC(=O)c3ccco3)C2=O)cc1 (configuration not stated)	i	-1	-1	u	5	-18	0	0
51	C=CCC(C(=O)NC(C)c1ccccc1)C(=O)NC(C)c1ccccc1 (configuration not stated)	i	-5	0	0	-7	-12	-8	-9
52	COC(=O)c1ccc(CSc2nc(-c3ccco3)cc(C(F)(F)F)n2)o1	i	-5	2	-8	x	-5	9	-1
53	O=S(=O)(NCc1csc(-c2cccnc2)n1)c1ccc(Cl)s1	i	-1	0	2	23	9	4	0
54	C=CCNC(=O)C1CCN(S(C)(=O)=O)CC1	i	1	3	30	-72	4	0	-3
55	Cc1cc(NC(=O)c2ccc(OCC3CCCO3)cc2)ccc1Br (configuration not stated)	x	7	-29	x	-86	-26	x	x
56	Cc1cccc(NC(=O)c2ccc(S(=O)(=O)N(C)C)cc2)n1	i	2	-3	3	x	-15	-5	-3
57	Cc1cc(=O)cc(C)n1-c1ccccc1N1CCOCC1	i	-5	-3	-4	-1	-12	1	5
58	Cn1cc(/C=C(\NC(=O)c2ccccc2)C(=O)NCCCn2ccnc2)c2ccccc21	x	-3	-3	x	5	-14	x	x
59	OC(COc1ccc(F)cc1Cl)CN1CCc2ccccc2C1 (configuration not stated)	i	4	6	-4	9	-2	x	2
60	C[C@H](CO)N1C[C@H](C)[C@@H](CN(C)Cc2cccnc2)OCc2cnnn2CCCC1=O	x	2	5	x	5	-14&-4	x	x
61	S=C(NCCCNC(=S)Nc1ccccc1)Nc1ccccc1	i	3	1	-2	-6	-29	-10	-7
62	Cc1cccc(Cl)c1OCCCCn1ccnc1	i	-3	-2	9	-63	-8	x	2
63	CCC1CCCCN1CCCNC(=O)c1ccc2c(c1)N(Cc1ccc(F)cc1)C(=O)c1ccccc1S2=O (configuration not stated)	i	-2	-6	7	-9	-5	25	-3
64	CC1(C)Oc2ccc3ccc(=O)oc3c2/C(=C/NCCN/C=C2\C(=O)C(C)(C)Oc3ccc4ccc(=O)oc4c32)C1=O	i	x	x	2	x	x	-2	-10
65	COc1ccc(CC(C)N2CCN(c3cccc(C(F)(F)F)c3)CC2)cc1OC (configuration not stated)	i	3	-6	10	46	-6	22	2
66	COc1ccc(N(C(=O)CNC(=O)c2ccco2)C(C(=O)NC2CCCC2)c2cccnc2)cc1 (configuration not stated)	i	-1	-2	11	0	-7	-6	10
67	O=c1c(-c2ccccc2)coc2cc(O)ccc12	x	x	x	8	x	8	1	4
68	Cc1nnc(SCC(=O)N2CCC(Cc3ccccc3)CC2)n(N)c1=O	i	-3	2	6	x	-6	-11	12
69	CCc1nc(Cl)c(C#N)c2c1CSC(C)(C)C2	i	-5	-5	-3	3	x	x	4

Screening data deposited in PubChem by several laboratories.
